KCNQ2 pot – potentiators of rat KCNQ2 potassium channel; Potassium voltage-gated channel subfamily KQT member 2 (Rattus norvegicus), O88943; CHO-K1 KCNQ2, FluxOR thallium flux fluorescence; active compounds read high; B-score at 10 µM; 310,000 tested, 0.54% active;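 active = fluorescence ratio B-score at least 3 SD of library B-scores, with initial fluorescence B-score within 3 SD, cut at about 5.3 in these data; same plate scores as AID 2156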;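 note: B-score of peak minus minimum over baseline fluorescence ratio after K+ and Tl+ stimulus; positive B-score means potentiation of KCNQ2 with more thallium influx and brighter signal; only the inactives scoring about 0 or higher are listed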
Target sequence (O88943 whole entry, looked up): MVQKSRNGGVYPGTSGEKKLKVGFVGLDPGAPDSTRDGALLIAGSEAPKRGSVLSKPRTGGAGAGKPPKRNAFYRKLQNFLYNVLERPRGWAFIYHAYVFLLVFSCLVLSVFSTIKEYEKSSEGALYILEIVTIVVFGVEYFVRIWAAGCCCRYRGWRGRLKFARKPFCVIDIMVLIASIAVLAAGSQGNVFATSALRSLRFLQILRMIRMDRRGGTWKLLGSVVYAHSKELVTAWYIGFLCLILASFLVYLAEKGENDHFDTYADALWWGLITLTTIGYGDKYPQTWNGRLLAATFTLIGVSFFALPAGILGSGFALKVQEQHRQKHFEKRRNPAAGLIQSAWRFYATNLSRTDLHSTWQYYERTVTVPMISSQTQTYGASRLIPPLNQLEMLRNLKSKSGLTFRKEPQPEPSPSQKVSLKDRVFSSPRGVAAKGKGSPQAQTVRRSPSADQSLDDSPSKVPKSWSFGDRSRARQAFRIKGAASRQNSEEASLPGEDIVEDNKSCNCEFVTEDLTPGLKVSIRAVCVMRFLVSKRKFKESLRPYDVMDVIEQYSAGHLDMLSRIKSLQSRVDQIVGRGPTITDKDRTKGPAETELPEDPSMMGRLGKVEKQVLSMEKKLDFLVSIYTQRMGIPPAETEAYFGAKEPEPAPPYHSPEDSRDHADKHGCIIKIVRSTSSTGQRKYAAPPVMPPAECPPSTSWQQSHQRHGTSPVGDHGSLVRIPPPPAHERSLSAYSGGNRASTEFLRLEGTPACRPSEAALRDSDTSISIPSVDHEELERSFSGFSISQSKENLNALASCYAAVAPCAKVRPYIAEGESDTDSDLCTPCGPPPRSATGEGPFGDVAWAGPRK
KCNQ2 pot baseline – further read-out of KCNQ2 pot, marked with its call; B-score; compound at 10 µM; measured here: initial fluorescence intensity artifact check;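 brightness before thallium and not channel activity; 0 = typical well and far values either way flag optical interference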
Active calls of the source: *.

KCNQ2 pot,KCNQ2 pot baseline,SMILES
0.11,-0.7,NC(=O)N=Nc1c2[nH]c3ccccc3nc-2c2ccccc12
0.03,-0.43,Cc1ccnc(NC(c2cccnc2)c2ccc3cccnc3c2O)c1 (stereo not given)
0.02,-0.15,Cc1cc(C)nc(SCC(=O)Nc2ncc(C(F)(F)F)cc2Cl)n1
0.05,-2.5,Cc1ccc(NC(=O)Cn2nnc(C(=O)NCc3ccc4c(c3)OCO4)c2N)cc1
0.13,-0.37,COc1cc(NC(=O)CSc2ccc(-c3ccco3)nn2)cc(OC)c1
1.8,-2.6,Cc1ccc(CNC(=O)CSc2nc3n[nH]c(C)c3c(=N)n2-c2cccc(C)c2)cc1
0.13,-0.24,CC(=O)Nc1ccc(Oc2ccc(-c3noc(C)n3)cc2)cc1
0.47,0.53,CNC(=O)/C(C#N)=C/c1c(N(Cc2ccccc2)Cc2ccccc2)nc2c(C)cccn2c1=O
0.9,0.09,CCOC(=O)C1(Cc2ccccc2C)CCCN(C(=O)CN2C(=O)CSC2=O)C1 (stereo not given)
5.1,14,O=C1NC(=S)/C(=C\c2ccc(-c3ccccc3Cl)o2)S1
1,-0.14,COc1ccc(C(=O)N2CCC(n3nnc4cc(F)ccc43)CC2)cc1OC
0.59,1.1,Cc1ccc(Oc2ncccc2N)c2c1CCC2
0.71,1.6,Cc1ccc2[nH]c(C(=O)N3CCCCC3)cc2c1
1.3,0.35,CC(=O)C1(C)N(O)C(C)(C)C(c2ccco2)=[N+]1[O-] (stereo not given)
0.8,0.67,COc1cc(OC)cc(C(=O)Nc2nnc(NC(=S)Nc3ccccc3)s2)c1
1.8,-1.8,COc1ccc(/C=N/Nc2nc(C)cc(-c3ccccc3)n2)c(OC)c1
0.04,-1.9,O=C(NCC1CCCO1)/C(=C\c1ccccc1)NC(=O)c1ccccc1 (stereo not given)
1,-0.46,Cc1cc(N/N=C/c2ccc(O)cc2O)nc(-n2nc(C)cc2C)n1
1.2,-0.02,O=C(O)CCC(=O)Nc1ccc(Sc2ccc([N+](=O)[O-])cc2)cc1
1.9,0.92,CCc1nnc(NC(=O)c2sc3nc(C)cc(COC)c3c2N)s1
2.1,0.45,COc1ccc(NC(=O)CSC2CCCCC2)cc1
0.56,-0.29,COC(=O)c1ccc(CSc2nnc(C)s2)cc1
0.68,-0.07,CS(=O)(=O)N(CC(=O)NCC1CCCO1)c1ccc(Cl)c(Cl)c1 (stereo not given)
0.92,-1.1,CC(NS(=O)(=O)c1ccccc1)C(c1cccs1)N1CCN(C)CC1 (stereo not given)

Copied from the list.
Under KCNQ2 pot baseline, Cc1ccnc(NC(c2cccnc2)c2ccc3cccnc3c2O)c1 (stereo not given) is listed with -0.43
Under KCNQ2 pot, COc1ccc(C(=O)N2CCC(n3nnc4cc(F)ccc43)CC2)cc1OC is listed with 1
Under KCNQ2 pot, Cc1cc(N/N=C/c2ccc(O)cc2O)nc(-n2nc(C)cc2C)n1 is listed with 1

(further entries)
KCNQ2 pot,KCNQ2 pot baseline,SMILES
0.04,-0.55,Cn1c(=S)ccc2ccccc21
0.97,-1,CNC(=S)N=Nc1c(O)[nH]c2ccc(C(C)C)cc12
0.67,-2,Cc1ccc(SCC(=O)NCc2ccncc2)cc1
1.8,-1,O=C(COC(=O)c1cc([N+](=O)[O-])ccc1NCCO)Nc1cccc(S(=O)(=O)N2CCCC2)c1
1.1,-1.6,COC(=O)CSc1nnc(SCc2ccc(OC)cc2)s1
0.38,1.4,CCOC(=O)C1=C(N)Oc2cc(O)ccc2C1c1cccnc1 (stereo not given)
1.1,1.2,CCCCOc1ccc(C(C)NC(=O)CCS(=O)(=O)Cc2ccc(C)cc2)cc1 (stereo not given)
1.4,0.05,O=C(CSc1nnc(-c2ccccc2)o1)NC1CCCCC1
0.21,0.99,Cc1cc(C)n(C(=O)c2ccc(C)o2)n1
0.47,-0.08,CCCCNc1nc2c(S(=O)(=O)c3ccccc3)nnn2c2ccccc12
2.1,0.33,CCCCCCCCCCCC(=O)NC(C(=O)O)C(O)c1ccccc1 (stereo not given)
0.9,-0.21,O=[N+]([O-])c1cc(C(F)(F)F)ccc1N1CCC(O)CC1
1.9,1.2,Cc1ccc(C)c(OCCC(=O)OCC(=O)c2c(N)n(C)c(=O)n(C)c2=O)c1
0.97,1.6,CCOC(=O)C1CCCN(C(=O)c2ccc(CS(=O)(=O)c3ccc(Br)cc3)o2)C1 (stereo not given)
0.87,-0.24,Cn1c(=O)n(C)c2cc(S(=O)(=O)N3CCN(c4ccccc4)CC3)ccc21
0.91,-0.65,CCCC(=O)N(Cc1cc2cccc(C)c2[nH]c1=O)c1ccccc1OC
0.03,0.11,CC(NC(=O)COC(=O)Cc1ccsc1)C1CC2CCC1C2 (stereo not given)
0.58,-0.11,CC(NC(=O)Nc1ccccc1O)(C(F)(F)F)C(F)(F)F
0.1,-0.03,CCOC(=O)c1c(C)[nH]c(C)c1C(=O)COC(=O)c1ccccc1O
0.25,1.2,Cc1cccc2c1NC(=O)C2(O)N1CCCC(C)C1 (stereo not given)
0.98,-2.4,Nc1c2c(nc3ccn(Cc4ccccc4)c(=O)c13)CCC2
0.68,0.06,CC1(C)CC(=O)C2=C(C1)N(c1ccc(F)cc1)C(=O)C2(O)C(F)(F)F (stereo not given)
0.07,1.6,CCOC(=O)c1cnn(CCOC(=O)c2cccc(F)c2)c1NC(=O)c1cccc(F)c1
0.95,-2.1,CCOC(=O)c1c(NC(=O)c2cccc(N3C(=O)CCC3=O)c2)sc2c1CCN(CC)C2
1.9,-1.6,CCc1cccc(C)c1NC(=O)COC(=O)C1CCN(S(=O)(=O)c2ccccc2)CC1
1.2,0.38,COc1ccc2c(c1)CCc1c(C(=O)NCCCn3ccnc3)noc1-2
0.26,0.48,COc1ccc([N+](=O)[O-])cc1NS(=O)(=O)c1ccc(Cl)c(C(=O)Nc2sc3c(c2C#N)CCCCC3)c1
1.2,0,CCOC(=O)Nc1nc(-c2ccc(Cl)cc2Cl)cs1
0.85,-4.2,C=CCSc1nnc(CC(OC)OC)n1-c1ccccc1
0.46,3,O=C(NC(=S)NNC(=O)c1ccccc1O)c1cccc([N+](=O)[O-])c1
0.46,0.43,COC(=O)c1ccccc1NC(=O)c1ccnn1C
1.2,0.64,COc1ccc(CNC(=O)C2CC(=O)N(C3CCCC3)C2)cc1 (stereo not given)
1.9,-2,O=C(CC1NCCN(Cc2ccccc2)C1=O)Nc1ccccc1 (stereo not given)
0.44,-0.01,O=C(O)c1ccc2c(c1)C(=O)N(Cc1ccc3c(c1)OCO3)C2=O
0.03,0.65,OCCOCCOc1ccccc1OCCOCCO
0.2,-1.7,Cc1cc(C)c2c(CN3CCN(Cc4ccccc4)CC3)cc(=O)oc2c1C

Molecules from the list above with a COOH group (3):
KCNQ2 pot,KCNQ2 pot baseline,SMILES
1.2,-0.02,O=C(O)CCC(=O)Nc1ccc(Sc2ccc([N+](=O)[O-])cc2)cc1
2.1,0.33,CCCCCCCCCCCC(=O)NC(C(=O)O)C(O)c1ccccc1 (stereo not given)
0.44,-0.01,O=C(O)c1ccc2c(c1)C(=O)N(Cc1ccc3c(c1)OCO3)C2=O

(listing goes on)
KCNQ2 pot,KCNQ2 pot baseline,SMILES
0.41,0.75,O=C(Nc1ccc(Br)cc1F)C1CCN(c2nnc(-n3cccc3)s2)CC1
0.47,0.69,Cc1ccc(C)c(NC(=O)C2CCN(S(=O)(=O)c3ccc4c(c3)NC(=O)CO4)CC2)c1
0.75,0.64,COc1ccc(S(=O)(=O)N(CC(=O)NC2CC2)c2ccc(C)cc2)cc1
0.97,1.8,O=C(NNC(=O)c1ccccc1-n1cccc1)c1ccc(Cl)cc1
0.14,0.22,CCCOc1ccc2[nH]c(C(=O)N/N=C/c3cc(OC)c(OC)c(OC)c3)cc2c1
0.35,-0.33,CCOC(=O)c1ccc(N=C2S/C(=C\c3cc(C)n(-c4cccnc4)c3C)C(=O)N2C)cc1
0.18,-1.2,CCOc1cc(N2CCOCC2)c(OCC)cc1NC(=O)COC(=O)CCc1c[nH]c2ccccc12
2.3,-1.2,CCC(C)[C@H](NC(=O)N1CC(=O)Nc2ccccc21)C(=O)N1CCC[C@@H]1C(=O)O (stereo not given in full)
0.82,-0.03,CCC(NS(=O)(=O)c1ccc(C)cc1)C(=O)Nc1ccc(NC(C)=O)cc1 (stereo not given)
0.23,0.51,Oc1ccccc1/C=N/Nc1nn[nH]n1
0.37,-1.3,CC(C)N(C)CCOC(=O)c1ccccc1Br
1.9,-0.41,COc1ccc(NC(=O)CSc2nc3ccsc3c(=O)n2CCC(=O)O)c(OC)c1
1.1,-1.1,CCn1nc(C(=O)OCC(=O)N(CC(C)C)c2c(N)n(Cc3ccccc3)c(=O)[nH]c2=O)c2ccccc2c1=O
0.43,2.2,NCCCC[C@H](N)c1nnc([C@H](CCC(=O)O)NC(=O)C2CCNCC2)o1
0.01,-0.21,CCOc1ccc(S(=O)(=O)N(CC)CC(=O)N2CCCC2)cc1C
0.31,-1.6,Nc1ccc(S(=O)(=O)Nc2nc(-c3ccccc3)cc(-c3ccccc3)n2)cc1
0.7,-2.2,O=C(CCNS(=O)(=O)c1ccc(Br)s1)NC1CCCC1
0.74,-0.06,CCOCCCNC(=O)c1cccc(OC2CCN(S(C)(=O)=O)CC2)c1
1.1,-0.57,COc1ccc(-n2c(CCc3ccccc3)n[nH]c2=S)cc1
0.16,-2.5,CCC(CO)Nc1ncc([N+](=O)[O-])cc1C#N (stereo not given)
0.08,-0.72,OCCN(CCO)c1ccc(C(c2ccc(Cl)cc2)c2ccc(N(CCO)CCO)cc2Cl)c(Cl)c1
0.17,0.27,Cc1ccc(CN2CCN(C(=O)C3CCCO3)CC2)cc1 (stereo not given)
0.02,0.88,CC(=O)C1=C(N2CCCCC2)CCC1=O
0.64,1.9,O=C(CN1C(=O)S/C(=C\c2ccccc2F)C1=O)Nc1ccccc1O
1.6,-2.4,CN(C)/C=N/c1nc2nccc(-c3cccnc3)n2n1
0.05,0,CC1=C(C)CC(C(=O)NCc2ccc3c(c2)OCO3)C(C(=O)O)C1 (stereo not given)
0.89,-2.1,COc1ccc(NC2CCCN(C(=O)CN3CCOC3=O)C2)cc1OC (stereo not given)
1.5,-0.27,CC(=O)Nc1ccc(S(=O)(=O)NCCCN2CCN(Cc3ccccc3)CC2)cc1Cl
0.07,-0.32,O=C(Nc1ccc(F)cc1)c1nc[nH]c1C(=O)Nc1ccc([N+](=O)[O-])cc1
0.36,1.2,O=C(CCCc1ccccc1)Nc1nncs1
0.03,0.88,Nc1nc(N)c2nc(-c3ccccc3)c(N)nc2n1
0.19,-1.9,O=S(=O)(c1ccc(-c2ccon2)s1)N1CCCC1
1.2,-0.77,CC(Oc1ccccc1)C(=O)Nc1nnc(C2CCCCC2)s1 (stereo not given)
0.1,0.24,O=c1oc2ccccc2c(Nc2cccc(O)c2)c1[N+](=O)[O-]
0.75,-0.4,CC(/C=N/Nc1nncc(=O)[nH]1)=C\c1ccccc1
0.26,1.5,COc1ccc(-c2cc(C(=O)NN3CCOCC3)c3ccccc3n2)cc1OC

A draw from above in order of length of the SMILES, low to high.
KCNQ2 pot,KCNQ2 pot baseline,SMILES
0.36,1.2,O=C(CCCc1ccccc1)Nc1nncs1
0.03,0.88,Nc1nc(N)c2nc(-c3ccccc3)c(N)nc2n1
0.19,-1.9,O=S(=O)(c1ccc(-c2ccon2)s1)N1CCCC1
0.75,-0.4,CC(/C=N/Nc1nncc(=O)[nH]1)=C\c1ccccc1
0.89,-2.1,COc1ccc(NC2CCCN(C(=O)CN3CCOC3=O)C2)cc1OC (stereo not given)
0.1,0.24,O=c1oc2ccccc2c(Nc2cccc(O)c2)c1[N+](=O)[O-]
0.07,-0.32,O=C(Nc1ccc(F)cc1)c1nc[nH]c1C(=O)Nc1ccc([N+](=O)[O-])cc1

The list continues.
KCNQ2 pot,KCNQ2 pot baseline,SMILES
0.3,-0.59,CCOc1ccc(NC(=O)CN(C)C(=O)c2ccccc2SCc2c(C)noc2C)cc1OCC
1,-0.58,CCC(C)N(C(=O)Cn1nnc(-c2ccc(F)cc2)n1)C1CCS(=O)(=O)C1 (stereo not given)
1.1,1.2,O=C(Nc1cccnc1)c1cc2nc(C3CC3)cc(C(F)(F)F)n2n1
1.5,-0.11,CC1(C)CC(=O)C(N=Nc2ccc(S(=O)(=O)N3CCCCCC3)cc2)=C(O)C1
0.28,-0.56,Cn1c(C(=O)NCc2cccs2)cc2oc3ccccc3c21
0.03,-0.27,Cc1nnc(NC(=O)C(C)Sc2nnc(-c3ccco3)n2C(C)C)s1 (stereo not given)
0.72,0,Cc1cc(C)cc(NC(=O)CSc2nnc(CNC(=O)c3cccs3)o2)c1
0.15,-0.06,NC(=O)C[N+]1(CC#CC(O)(c2ccccc2)c2ccccc2)CCCC1
0.95,-0.52,COc1ccc(CN(C2CCCC2)S(=O)(=O)c2ccc(-n3cnnn3)cc2)cc1
0.43,1.1,O=C(/C=C/c1cccc(F)c1)Nc1nccs1
1.1,0.79,O=C(CN1CCOCC1)N1CCN(c2nnc(-c3ccccc3)c3ccccc23)CC1
1.5,-2.1,CCC(=S)/C=C1\Sc2ccccc2N1CCCS(=O)(=O)O
0.8,-1.4,CCN(CCNC(=O)C1CCN(S(=O)(=O)c2cccc3nsnc23)CC1)c1ccccc1
1.2,-2.2,CN(C(=O)C1CCN(S(=O)(=O)c2cccs2)CC1)c1ccccc1
0.19,-0.2,C[C@H]1C[C@H]2[C@@H]3CCC4=CC(=O)C=C[C@]4(C)[C@@]3(Cl)[C@@H](O)C[C@]2(C)[C@@]1(O)C(=O)CO
13*,0.07*,COc1ccc2nc(NC(=S)NC(=O)c3ccco3)sc2c1
0.34,0.03,CCCc1nn2c(=O)cc(CSCC(=O)Nc3ccc(C)cc3)nc2s1
0.98,1.9,Cc1csc2ncnc(N3CCN(C(=O)Nc4ccc(OC(F)(F)F)cc4)CC3)c12
0.12,-0.21,COc1ccc(-c2nnc(C3CCN(S(=O)(=O)c4ccccc4)CC3)o2)cc1
0.54,-0.11,CCCCC(=O)N1CCCC(c2nc(-c3cccc(OC)c3)no2)C1 (stereo not given)
0.93,-0.99,Cc1cccc(N(C)C(=O)CN(C)S(=O)(=O)c2ccc3c(c2)c(=O)n(C)c(=O)n3C)c1

A portion of the library (hit frequency here may not be typical).
